Beta apoptosis = beta cell apoptosis inhibition; protection from apoptosis, % (test concentration not listed); 0.8% of 300,000 active; INS-1E cytokine-induced death, ATP luminescence, 48 h; percent of positive-control rescue, neutral wells zero; AID 435005;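 active = all replicates at 75% or more, or half of them and the mean; inconclusive = half reach 75% but not the mean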;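 also: 0% = cytokine-treated negative control wells and 100% = positive control rescue; higher means more ATP so stronger rescue from cytokine killing; wells of about 40 µL received 100 nL stock; the first replicate is given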
rRNA inh HTS = inhibits bacterial ribosomal RNA function over humanized ribosomes | GFP signal change (wild-type ribosome), % (test concentration not listed) | 1.6% of 350,000 active | AID 720706 | E. coli WT GFP vs humanized-ribosome RFP mutants, fluorescence, 24 h; hits give low values; DMSO median 0, no signal -100;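 active = significant combined selectivity score with lowered wild-type GFP, culture density cut under 30%, mutant RFP and density less affected; inactive = any of these conditions unmet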; also: one replicate is shown; some compounds called inactive have numbers as strong as hits
E coli growth = E. coli growth inhibition; AID 1053175; 0.21% of 330,000 active; OD600 absorbance (no concentration beside the values); Escherichia coli growth, OD600, 23 h; hits give low values;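 active = OD600 absorbance below the run mean of sample wells minus 3.6 SD, in any replicate, cut at about 0.56 in these data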;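 also: stock transfer was 300 nL into about 60 µL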
Bfl-1 A1 inh = inhibitors of the anti-apoptotic protein A1, read as caspase activation. MEF A1-2A-BIM cells, Caspase-Glo 3/7 luminescence, 3 h; percent of clofoctol response, vehicle zero. caspase activation, % (concentration not given with the values). 0.066% of 330,000 active;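 active = over half of replicate activation scores above 10%, or exactly half above 10 with the replicate mean above 10; inconclusive = replicate mean below 10 yet half the replicates above 10; inactive = over half of replicates below 10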;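 also: wells of about 30 µL received 50 nL stock; many hits fall short of the cut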
FGF22 binding = binders of recombinant human FGF22 by thermal shift; Q9HCT0; SYPRO orange fluorescence; percent of sucrose octasulfate shift, DMSO zero; calls only at 9.99 µM; 1.5% of 340,000 active;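 active = melting point raised past a set limit in the mean and every replicate; inconclusive = no clear call; three in four hits are not shown here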
Target sequence (Q9HCT0 whole entry, looked up): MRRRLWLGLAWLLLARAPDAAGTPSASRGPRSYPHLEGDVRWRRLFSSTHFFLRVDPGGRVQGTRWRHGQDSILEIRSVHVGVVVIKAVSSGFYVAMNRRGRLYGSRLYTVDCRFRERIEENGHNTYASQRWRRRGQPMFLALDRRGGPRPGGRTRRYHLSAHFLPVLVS
UCH37 inh = blocks the human deubiquitinase UCH37; Q9Y5K5; purified proteasome/UCH37, Ub-AMC cleavage fluorescence; inhibition, % (test concentration not listed); 0.33% of 330,000 active;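 active = mean of two replicates above 20%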;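 also: 0% = compound-free wells with enzyme and 100% = wells lacking proteasome; stock transfer was 100 nL into about 20 µL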
Target sequence (Q9Y5K5 whole entry, looked up): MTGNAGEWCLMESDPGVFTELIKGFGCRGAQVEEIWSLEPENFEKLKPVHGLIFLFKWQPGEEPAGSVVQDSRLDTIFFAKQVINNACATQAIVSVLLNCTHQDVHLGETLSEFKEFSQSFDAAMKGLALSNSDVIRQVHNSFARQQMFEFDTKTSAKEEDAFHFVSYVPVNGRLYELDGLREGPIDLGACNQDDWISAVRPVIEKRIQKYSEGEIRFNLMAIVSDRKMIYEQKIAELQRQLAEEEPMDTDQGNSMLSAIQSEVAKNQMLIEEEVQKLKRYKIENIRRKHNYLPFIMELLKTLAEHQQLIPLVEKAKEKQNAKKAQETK
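assay system = human UCH37 enzyme supplied as purified proteasome complex | amount = proteasome at 0.15 nM in the dispensed enzyme solution | schedule = 30 min compound-proteasome preincubation then 25 min substrate reaction, room temperature | measured by = fluorescence, ex 355 nm, em 460 nm | benchmarks = no-proteasome wells (full inhibition) and compound-free wells (no inhibition)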
T cruzi repl = blocks replication of Trypanosoma cruzi; inhibition, % (concentration not given with the values); 1.4% of 300,000 active; T. cruzi beta-gal in NIH3T3, luminescence, 90 h; AID 1885;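 active = mean inhibition across valid replicates above about 55%, limit read from the data; inconclusive = mean below that limit but half or more replicates reach it; inactive = mean below it, under half of replicates reach it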;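 also: signal also drops with host cell toxicity which is not excluded here; 0% = plate median of DMSO wells and 100% = zero luminescence signal; higher percent means less beta-gal luminescence so fewer parasites; stock transfer was 50 nL into about 50 µL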
AF4-AF9 inh = inhibitors of human MLL-AF4/AF9 interaction. AlphaScreen, biotin-AF4 peptide binding to FLAG-AF9. inhibition, % at 10 µM. 0.47% of 350,000 active. AID 651704;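 active = every replicate reaching a set inhibition limit, whatever the replicate mean, cut at about 25% in these data; inconclusive = mean inhibition reaches that limit but some replicates miss it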;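 also: 0% = plate neutral control median and 100% = total signal loss; the record names both 10 and 1 µM as test concentration; the first replicate is given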
Target sequence (P42568 whole entry, looked up): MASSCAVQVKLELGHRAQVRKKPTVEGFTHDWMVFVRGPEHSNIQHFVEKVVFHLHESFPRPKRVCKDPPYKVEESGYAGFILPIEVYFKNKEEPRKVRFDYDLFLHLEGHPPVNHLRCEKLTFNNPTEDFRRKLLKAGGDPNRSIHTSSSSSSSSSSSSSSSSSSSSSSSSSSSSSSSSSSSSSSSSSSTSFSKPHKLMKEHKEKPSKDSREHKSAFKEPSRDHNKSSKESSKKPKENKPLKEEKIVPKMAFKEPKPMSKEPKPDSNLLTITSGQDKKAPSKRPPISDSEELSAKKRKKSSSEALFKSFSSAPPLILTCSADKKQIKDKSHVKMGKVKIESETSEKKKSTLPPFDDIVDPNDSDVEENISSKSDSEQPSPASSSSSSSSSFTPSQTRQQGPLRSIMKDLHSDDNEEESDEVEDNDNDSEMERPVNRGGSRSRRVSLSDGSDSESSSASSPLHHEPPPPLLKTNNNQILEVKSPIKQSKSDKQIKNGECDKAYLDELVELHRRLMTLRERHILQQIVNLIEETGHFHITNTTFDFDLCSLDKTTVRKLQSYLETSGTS
rRNA inh HTS OD600 = recorded beside rRNA inh HTS, whose call it bears; OD600 change, %; measured here: OD600 growth;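 optical density of the mix in the first replicate; 0 = DMSO median and -100 = no signal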
rRNA inh HTS RFP = recorded beside rRNA inh HTS, whose call it bears; RFP signal change, %; measured here: RFP humanized mutant strains;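 first replicate; 0 = DMSO median and -100 = no signal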
* = called active by the depositor; i = inactive; ? = inconclusive; . = no result given. This is a subset; count on the stated rates, not on these rows.

Order of values – Beta apoptosis	rRNA inh HTS	rRNA inh HTS OD600	rRNA inh HTS RFP	E coli growth	Bfl-1 A1 inh	FGF22 binding	UCH37 inh	T cruzi repl	AF4-AF9 inh
- Cc1nn(C)c(C)c1CN(C(=O)C1CCC(=O)N(C2CCCCCC2)C1)C(C)C (stereo not given)
    -4	5	13	-0.6	0.63	2.8	i	0.7	-16	1.2
- CC(=O)NCCn1c(SCc2cccc([N+](=O)[O-])c2)nc2ccccc2c1=O
    12	11	13	1.5	0.73	0.5	.	-0.2	19	-1.1
- Cc1csc(CNc2ncnc3ccc(-c4ccoc4)cc23)c1
    -12	-2	9	-1.9	.	-1.0	i	2.0	.	2.9
- CC(OC(=O)C1CCCC1)C(=O)Nc1ccc(C(N)=O)cc1 (stereo not given)
    1	6	9	2.9	0.6	0.2	i	3.1	-2	-1.3
- O=C(NCc1ccncc1)/C(=C\c1ccc(F)cc1)NC(=O)c1ccccc1
    -6	-3	-1	0.9	0.7	-0.3	.	-0.1	-3	-1.1
- Nc1nc(-c2ccc(Cl)cc2)nn1C(=O)c1ccco1
    6	10	3	-1.5	0.7	-1.3	i	-37	11	0.1
- CCc1ccccc1NC(=O)c1cc(-c2cccs2)on1
    2	-2	3	3.7	0.67	-1.0	i	-0.5	-8	-0.5
- CCOC(=O)N1CCc2c(sc3c2c(=O)n(Cc2ccccc2)c(=O)n3Cc2cccc(C)c2)C1
    17	4	5	1.5	0.82	0.6	i	7.6	51	-2.2
- Cc1ccc(Nc2nc(N/N=C\c3ccc4c(c3)OCO4)nc(N3CCOCC3)n2)cc1
    2	7	10	5.5	.	0.1	i	.	58*	9.1
- COC(=O)CSc1snnc1-c1ccc(F)cc1
    7	.	.	.	0.7	-0.3	.	-0.1	-20	.
- Cc1ccc(S(=O)(=O)N2CCOCC2)cc1NC(=O)c1cc(-c2ccccn2)nc2ccccc12
    1	-3	-5	5.8	0.73	0.1	i	6.7	5	0.8
- CCN1C(=O)[C@@H]2Cc3c([nH]c4ccccc34)C(c3ccc(OC)cc3)N2C1=S (stereo not given in full)
    18	35	-3	-19	0.7	-2.9	.	1.1	35	.
- COc1ccc(NC(=O)C23CC4CC(C2)CC(n2cnc(Br)n2)(C4)C3)cc1Cl
    10	.	.	.	0.68	1.2	.	-0.3	21	.
- C=CCn1c(=O)[nH]c2cc(C(=O)N3CCN(c4ccc(C(C)=O)cc4)CC3)ccc2c1=O
    10	.	.	.	0.72	0.3	.	3.1	2	.
- Cc1noc(NS(=O)(=O)c2ccc(NC(=O)c3ccc(N(C)C)cc3)cc2)c1C
    -1	-3	-8	-1.3	0.71	1.0	i	-0.9	.	2.1
- COc1cc(C(=O)NCC(=O)NCCCSc2ccccc2)cc(OC)c1OC
    0	.	.	.	0.67	0.2	i	0.4	.	-5.3
- CCC1CCC/C1=N\NC(=O)c1ccc(Cl)cc1 (stereo not given)
    -8	10	7	-0.6	.	-0.5	i	.	-11	-5.7
- Cc1nn2c(Nc3ccccc3)c3c(nc2c1-c1ccccc1)CCC3
    48	14	12	1.3	0.69	0.3	i	-54	38	?
- COC(=O)CCN1CCN(S(=O)(=O)c2ccccc2Br)CC1
    -2	14	7	-0.6	0.64	-0.5	i	2.7	-2	2.3
- O=C(COC(=O)CNC(=O)c1sc2ccccc2c1Cl)NC1CCS(=O)(=O)C1 (stereo not given)
    5	2	-4	-1.3	0.69	0.0	i	-0.5	1	-3.1

Next entries.
Order of values – Beta apoptosis	rRNA inh HTS	rRNA inh HTS OD600	rRNA inh HTS RFP	E coli growth	Bfl-1 A1 inh	FGF22 binding	UCH37 inh	T cruzi repl	AF4-AF9 inh
- Cc1ccc(C)c2sc(NC(=O)C3CC3)nc12
    2	-6	-6	-2.6	0.72	-0.2	i	0.8	-10	3.1
- CC1(C(=O)O)CCC(C(=O)NC2CCCCC2)C1(C)C (stereo not given)
    -3	24	14	1.1	0.67	0.5	i	0.9	-6	-14
- CCCOc1ccc(-c2c(C(=O)N/N=C(\C)COc3ccccc3)nnn2-c2nonc2N)cc1
    1	11	14	3.1	.	-1.6	i	.	-6	-5.5
- C=CCC[C@@H](Cc1ccc(F)cc1)C(=O)OC[C@H]1CCCN1C(=O)[C@@H](CC=C)CC(=O)N[C@H](CO)Cc1ccccc1
    2	-23	-43	22	.	-0.2	i	-1.2	.	4.0
- O=C1C=C(N2CCOCC2)CO1
    1	18	23	1.3	0.7	0.8	i	0.5	-32	1.2
- Nc1cc(N)nc(SCC(=O)Nc2cc(S(=O)(=O)N3CCOCC3)ccc2Cl)n1
    -1	7	8	0.0	0.68	0.7	i	0.5	-4	-2.5
- CCN1CCN(CCCOc2ccc(-c3ccccc3)cc2)CC1
    19	.	.	.	0.62	-0.6	.	3.5	72*	.
- Cc1ccc(C(=O)CC2(O)C(=O)N(CCc3ccccc3)c3ccc(Br)cc32)o1 (stereo not given)
    -6	.	.	.	0.7	0.2	.	3.1	24	.
- COc1cc(C(=O)Nc2nnc(CC(=O)NCc3ccccc3)s2)cc(OC)c1OC
    -1	1	-11	-2.0	0.67	-2.0	i	-2.1	-20	-18
- C#CCOCCOCCOCCNc1nc(N2CCN(C(=O)[C@H]([C@@H](C)CC)n3cc([C@@H](N)CC(C)C)nn3)CC2)nc(N2CCN(C(=O)[C@H]([C@@H](C)CC)n3cc([C@@H](N)CC(C)C)nn3)CC2)n1
    -4	-3	-26	12	.	0.5	i	-1.0	-5	18
- CCn1c(O)c(C=NC2CCCC(C)C2C)sc1=S (stereo not given)
    -7	-23	-20	-3.4	0.67	-1.4	i	4.3	25	.
- Cc1ccc2cc3c(N)c(C(=O)N4CCOCC4)sc3nc2c1
    -11	.	.	.	0.69	-6.1	.	9.5	-9	.
- Cc1cc(C)cc(NC(=O)C(OC(=O)c2sccc2C)c2ccccc2)c1 (stereo not given)
    -1	.	.	.	0.66	0.3	.	1.9	29	.
- COc1cccc2c1cc1c(=O)n(CC(=O)NCCCN3CCN(C)CC3)nc(C)n12
    1	1	-1	0.5	0.7	0.1	i	i	-21	-3.0
- Cn1cccc1CNC1CCCC1
    -4	10	3	-2.1	.	0.3	i	.	12	-12
- N=C1/C(=C/c2ccco2)C(=O)N=C2SC(CC(=O)N3CCCC3)=NN12
    -4	1	2	0.2	0.65	-0.4	i	19	-17	-2.2
- c1cncc(-c2nc(NCCCN3CCOCC3)c3c4c(sc3n2)CCC4)c1
    8	-32	-32	-4.5	0.69	0.8	i	-131	73*	3.5
- O=C(O)CCC(=O)Nc1ccccc1C(=O)NCCc1ccccc1
    -1	.	.	.	0.71	-1.4	i	1.2	-9	-1.7
- Cc1ccc(S(=O)(=O)N/N=C/c2ccc(OCC(=O)Nc3ccccc3Cl)cc2)cc1
    0	-1	-2	-2.5	.	1.5	i	.	24	-9.9
- CN(C)C(=S)Nc1ccc(Br)c(Cl)c1
    -3	-11	-4	-0.7	0.64	-0.1	i	5.5	-8	3.6

(cont.)
Order of values – Beta apoptosis	rRNA inh HTS	rRNA inh HTS OD600	rRNA inh HTS RFP	E coli growth	Bfl-1 A1 inh	FGF22 binding	UCH37 inh	T cruzi repl	AF4-AF9 inh
- CC1CCN(C(=O)CCCN2C(=O)c3cccnc3Oc3ccc(Cl)cc32)CC1
    -1	-2	-1	-0.8	0.65	-0.2	i	3.1	2	-0.2
- O=C(O)COc1ccccc1/C=C1\C(=O)Nc2ccc(Br)cc21
    -3	-8	-16	-0.8	0.71	5.3*	i	7.4	-15	3.5
- N=c1ccn(Cc2ccc(F)cc2)cc1
    -4	20	17	3.5	0.63	1.3	i	1.6	-21	-0.5
- Cc1cc(C)c2nc(Cl)c(Cl)nc2c1
    -10	16	10	0.7	0.69	0.3	i	-3.1	-7	-0.5
- CC(NC(=O)C1CCC(CNS(=O)(=O)c2ccccc2)CC1)c1ccccc1 (stereo not given)
    -7	11	18	2.9	0.66	-0.2	i	2.7	9	-5.3
- Clc1ccc2c(c1)Nc1ccccc1CC2
    -8	.	.	.	0.62	0.0	i	5.3	23	2.5
- CCC1CCCCN1C(=O)c1c[nH]c2ccc(S(=O)(=O)N(C)c3ccc(Cl)cc3)cc2c1=O (stereo not given)
    -8	12	2	-2.4	0.68	1.2	i	-1.5	-5	4.8
- CCOc1ccccc1NC(=O)C(OC(=O)c1ccc(N(C)C)cc1)c1ccccc1 (stereo not given)
    -4	.	.	.	0.72	0.6	.	-9.8	24	.
- O=C(c1c(F)cccc1F)N1CCN=C1SCc1ccccc1
    -2	10	3	-2.6	0.71	0.0	i	2.1	-2	-3.8
- CC(=O)Nc1ccc(NC(=O)CSc2ccc3nnc(-c4cccnc4)n3n2)cc1
    0	15	10	2.8	0.69	0.5	i	4.1	-20	-0.8
- CCc1nc(C)cc2c1sc1ccccc12
    0	-7	-10	2.6	0.62	0.0	i	5.4	10	-2.8
- CC(=O)N1CCN=C1SCc1cccc(C(F)(F)F)c1
    .	.	.	.	0.74	0.8	.	5.5	14	.
- CC(=O)COc1ncnc2c(Cl)cc(Cl)cc12
    -6	2	-6	-1.3	0.68	0.3	i	2.2	-12	-0.6
- O=C(CSc1nnc(-c2ccco2)o1)NC1CCCCCC1
    1	-2	-3	1.1	0.79	0.2	.	0.4	20	.
- CN(C(=O)CN1C(=O)S/C(=C\c2ccccc2Cl)C1=O)C1CCS(=O)(=O)C1 (stereo not given)
    0	-11	-10	3.6	0.67	-0.6	i	3.3	-26	1.7
- Cc1ccc(/C=C(\C#N)C(=O)Nc2c(C)cccc2C)s1
    0	14	5	27	0.65	0.1	i	6.4	17	3.0
- NC(N)=Nc1nc2ccc([N+](=O)[O-])cc2[nH]1
    -3	-3	3	-0.2	0.62	-1.0	i	13	46	1.4
- CCC(c1nnc(SCC(=O)NC23CC4CC(CC(C4)C2)C3)o1)N(C)C (stereo not given)
    -5	.	.	.	0.71	-0.2	.	-8.6	.	.
- CN(C(=O)c1ccccc1C(=O)OCC(=O)Nc1ccc(S(N)(=O)=O)cc1)c1ccccc1
    0	-20	-38	-9.9	0.63	0.5	i	1.2	3	0.1
- C=CCc1ccccc1OCC(=O)NNC(=S)NCc1ccccc1
    -2	-6	-26	-1.5	0.68	1.3	i	2.5	2	0.0
- Cc1nc2cc(NS(=O)(=O)c3ccc(Br)cc3)ccc2n1C
    -4	-8	-10	-9.0	0.65	-0.8	i	-0.3	5	-2.2
- CCOC(=O)c1ccc2ncc(-c3ccccc3)nc2c1
    .	-1	16	-5.3	0.72	.	i	5.4	-11	0.8

Structures above that contain a COOH group, in the order listed:
Order of values – Beta apoptosis	rRNA inh HTS	rRNA inh HTS OD600	rRNA inh HTS RFP	E coli growth	Bfl-1 A1 inh	FGF22 binding	UCH37 inh	T cruzi repl	AF4-AF9 inh
- CC1(C(=O)O)CCC(C(=O)NC2CCCCC2)C1(C)C (stereo not given)
    -3	24	14	1.1	0.67	0.5	i	0.9	-6	-14
- O=C(O)CCC(=O)Nc1ccccc1C(=O)NCCc1ccccc1
    -1	.	.	.	0.71	-1.4	i	1.2	-9	-1.7
- O=C(O)COc1ccccc1/C=C1\C(=O)Nc2ccc(Br)cc21
    -3	-8	-16	-0.8	0.71	5.3*	i	7.4	-15	3.5

Assay outcomes from PubChem BioAssay.
